Mtb H37Rv = M. tuberculosis H37Rv growth inhibitors, H37Rv strain (AID 1626); M. tuberculosis H37Rv growth inhibition; higher % means a stronger effect; one-dose inhibition, % at 10 µM; IC50 in µM for titrated hits; actives 0.95% (n = 220,000);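 active = confirmed in a dose series; inconclusive = inhibition above 80% but not taken into the dose series; inactive = below 80% or under 30% at every dose of the series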;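 note: bacteria incubated seven days before Alamar blue readout; 0% = bacteria only wells and 100% = bacteria with antibiotic wells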
RecA intein inh = inhibitors of M. tuberculosis RecA intein splicing | P9WHJ3 | cell-free RecA intein splicing, fluorescence | inhibition, %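 (about 9 µM by stock and volumes)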 | actives 0.75% (n = 290,000) | AID 2221; in the data active = inhibition above about 30%; inconclusive = no clear call, values can overlap the other calls;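 note: 0% = vehicle wells and 100% = reference inhibitor control wells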
Target sequence (P9WHJ3 whole entry, looked up): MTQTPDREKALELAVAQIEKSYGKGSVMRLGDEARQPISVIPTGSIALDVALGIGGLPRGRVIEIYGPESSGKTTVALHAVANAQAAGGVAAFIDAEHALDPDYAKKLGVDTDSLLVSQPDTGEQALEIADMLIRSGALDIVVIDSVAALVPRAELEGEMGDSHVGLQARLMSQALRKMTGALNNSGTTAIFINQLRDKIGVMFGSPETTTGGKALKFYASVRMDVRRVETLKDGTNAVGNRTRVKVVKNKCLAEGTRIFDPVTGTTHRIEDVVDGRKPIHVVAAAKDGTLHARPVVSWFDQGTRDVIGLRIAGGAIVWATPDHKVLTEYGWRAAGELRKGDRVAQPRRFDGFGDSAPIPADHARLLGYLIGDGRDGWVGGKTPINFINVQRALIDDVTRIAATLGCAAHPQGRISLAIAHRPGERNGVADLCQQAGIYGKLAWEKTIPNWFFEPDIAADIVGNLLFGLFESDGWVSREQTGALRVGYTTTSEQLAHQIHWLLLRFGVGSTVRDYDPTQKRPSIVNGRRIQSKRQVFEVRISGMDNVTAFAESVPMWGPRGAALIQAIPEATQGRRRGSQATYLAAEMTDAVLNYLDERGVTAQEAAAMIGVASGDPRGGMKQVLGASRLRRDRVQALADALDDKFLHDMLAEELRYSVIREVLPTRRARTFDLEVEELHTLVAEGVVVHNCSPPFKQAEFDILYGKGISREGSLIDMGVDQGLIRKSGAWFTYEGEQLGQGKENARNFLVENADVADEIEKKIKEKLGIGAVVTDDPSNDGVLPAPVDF
Mtb bLac sens = beta-lactam sensitization of Mtb H37Rv | inhibition, % at 25 µM | M. tuberculosis H37Rv growth with meropenem, percent inhibition; hits of this screen are not shown here | actives 0.27% (n = 330,000);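 active = about 74% or more and at least 40 points above the plate without the antibiotic, then above 30% in a dose series; inconclusive = first-round hits that could not be retested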;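 note: growth measured after seven days incubation then overnight dye step; 0% = bacteria only wells and 100% = bacteria with antibiotic; twin plates without the antibiotic show which effects depend on it; some results filed as inactive read as strong as hits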
Arbovirus anti = blocks arbovirus infection; arbovirus infection cell-based antiviral screen; inhibition, % at 10 µM; actives 0.37% (n = 200,000);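 active = inhibition from about 30%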;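 note: bluetongue infection of BSR cells; cell survival read as ATP light after 72 h; 0% = infected wells without compound and 100% = uninfected wells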
YopH inh = inhibitors of Yersinia enterocolitica YopH tyrosine phosphatase | fluorescence Ex485/Em525 | inhibition, %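 (about 10 µM by stock and volumes)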 | actives 0.16% (n = 140,000) | AID 898;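 active = inhibition of 50% or more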;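 note: controls were vehicle for no effect and minimum signal wells for full effect; inactives centre near -20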
Arbovirus anti repeat = second read-out of Arbovirus anti, no call of its own (marks repeat the call); inhibition, %; measured here: 10K subset replicate screen; many hits read low in the repeat;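 first of two repeat runs on a subset; 0% = infected and 100% = uninfected wells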
The depositor's hits bear a star; ? = inconclusive; / = not tested or not shown; & = joins results of further samples.

SMILES | Mtb H37Rv | RecA intein inh | Mtb bLac sens | Arbovirus anti | YopH inh | others
Cc1cc(C)n(C(=O)CNc2ccccc2Cl)n1 | -6% | 1.9 | 5 | 0 | -20
COc1ccccc1OCC(=O)Nc1sc2c(c1C(=O)NCC1CCCO1)CCC2 (configuration not stated) | 2% | 0.9 | -9 | 3 | -10
COCCCN1C(=O)C(=O)/C(=C(/O)c2ccc(OC(C)C)c(C)c2)C1c1ccncc1 (configuration not stated) | -9% | 0.2 | -9 | 4 | -50
COc1ccccc1NS(=O)(=O)c1cccc(NC(=O)C2CC(=O)N(Cc3ccccc3)C2)c1 (configuration not stated) | 1% | 0.7 | -17 | 7 | /
COCCNC(=O)C1c2cc(OC)c(OC)cc2C(=O)N(C)C1c1cccnc1 (configuration not stated) | -4% | -3.2 | 3 | 3 | -30 | Arbovirus anti repeat=3
CC(C)CCNC(=O)c1ccc2c(Cl)c3c(nc2c1)CCC3 | / | 7.7 | -3 | / | /
O=C(NNC1=NS(=O)(=O)c2ccccc21)c1ccccc1Cl | -8% | -1.4 | 3 | -3 | /
O=C(NCc1ccncc1)c1ccccc1Nc1ccc(SC(F)F)cc1 | / | 12 | 5 | / | /
Cc1cccc(NC(=S)NC(NC(=O)c2ccco2)C(Cl)(Cl)Cl)c1 (configuration not stated) | 11% | 5.5 | -9 | -32 | 5
CC(C)C[C@@H](C(=O)O)N(Cc1cccc(CN([C@@H](CC(C)C)C(=O)O)S(C)(=O)=O)c1)S(C)(=O)=O | / | -6.9 | -10 | / | /
COc1ccc(C2c3[nH]c4ccccc4c3C[C@H]3C(=O)N(C4CCN(Cc5ccccc5)CC4)CC(=O)N23)cc1OC (some centres not stated) | / | 5.1 | 89 | / | /
Cc1cccc(/C=N/NC(=O)CNc2cccc3ccccc23)n1 | 11% | 3.3 | -4 | -15 | -11
Cc1ccc(/C=N/NC(=O)Cc2cccn2C)cc1 | -2% | 6.3 | 1 | / | /
CCc1cc(=O)oc2cc(OC(C)C(=O)NCc3ccccn3)ccc12 (configuration not stated) | / | 0.3 | -7 | / | /
Clc1cccc(-c2nn3c(Cn4cnc5ccccc54)nnc3s2)c1 | -1% | 0.8 | -7 | -7 | -12
COc1cccc(/C=C2\Oc3cc(OCC(=O)N4CCC[C@H]4C(=O)O)ccc3C2=O)c1 | / | -2.9 | 6 | / | /
O=C(COC(=O)c1ccccc1NCc1ccco1)Nc1ccc2c(c1)OCO2 | -18% | 0.2 | 1 | -10 | -9
CCc1csc(CCNC(=O)C2CCC(=O)N(CCc3cccc(F)c3)C2)n1 (configuration not stated) | / | 1.8 | 1 | / | /
CC(/C=C/c1ccco1)=N/NC(=O)c1ccc(C)nc1 | -7% | 2.5 | 27 | / | /
CCc1cccc(CC)c1NC(=O)CN1CCc2cc(OC)c(OC)cc2C1 | / | 2.5 | -6 | / | /
CCOc1c(CNc2nnnn2C)cccc1OC | -6% | 5.9 | -6 | 2 | /
CN(C)C(=O)c1cc(C(=O)Cc2ccccc2)c[nH]1 | / | 0.2 | 1 | / | /
Cc1cccc(S(=O)(=O)c2c(N)n(/N=C/c3cccnc3)c3nc4ccccc4nc23)c1 | -1% | -3.4 | 7 | -10 | -1
O=C(NCCc1ccccc1)C(=O)c1c(-c2ccccc2)cc2ccccn12 | 6% | 0.8 | -3 | 3 | -25
CCn1c(CC(=O)Nc2ccccc2F)nnc1SCC(=O)NC1CCCC1 | / | 1.5 | 0 | / | /
CC(c1ccccc1)C1C(C#N)=C(N)OC2=C1C(=O)CCC2 (configuration not stated) | 0% | 1.8 | -5 | -3 | -13 | Arbovirus anti repeat=8
COCCN(CCOC)C(=O)CC(=O)N(CCOC)CCOC | -9% | -0.4 | -2 | 15 | -5
COC(=O)c1ccc(S(=O)(=O)N2CCCCCC2)cc1 | -2% | -2.0 | -6 | -6 | -50
CN1CCN(S(=O)(=O)c2cccc(C(=O)Oc3cccc(Br)c3)c2)CC1 | / | 8.9 | -11 | / | /
O=C(N/N=C/C=C/c1ccccc1)c1cccnc1 | -7% | -7.8 | -6 | / | /
COc1cc(C2C(C#N)=C(N)Oc3cc(C)oc(=O)c32)cc2c1OCO2 (configuration not stated) | -14% | 1.2 | -4 | 10 | -44
CCSc1nc2ccccc2c(=O)n1OCC(=O)OC | -1% | -2.5 | -4 | 4 | 6
CC1(C)C2CC=C(/C=N/NC(=S)NCCc3ccccc3)C1C2 (configuration not stated) | ? | / | 73 | -13 | /
CCS(=O)(=O)N1Cc2ccccc2CC1C(=O)Nc1ccc(C)cc1 (configuration not stated) | -5% | 3.7 | -30 | -3 | 2
Cc1ccc(C)n1NC(=O)c1ccc([N+](=O)[O-])cc1 | 7% | -0.2 | -1 | 0 | /
Cc1nnc(SCCCOc2ccccc2)nc1C | 5% | -0.8 | -16 | / | /
Cc1ccccc1NC(=O)c1cc(-c2ccccc2)n(CCCN2CCOCC2)c1C | -12% | 3.0 | 1 | / | /
CCOC(=O)C1=C(C)N(CCCC(=O)O)C(=O)NC1c1ccc2ccccc2c1 (configuration not stated) | -12% | -2.3 | -3 | / | /
CC(=O)c1ccc(NC(=O)c2noc(C(C)C)c2[N+](=O)[O-])cc1 | 0% | -0.1 | -2 | 8 | /
CCCOc1ccc(NC(=O)C2CC(=O)N3CCCN=C3S2)cc1 (configuration not stated) | 37% | 3.1 | 22 | -5 | 18
CCCOc1cc(C)c(S(=O)(=O)NCCOC)cc1C | -4% | 0.3 | -6 | -10 | -15
CCCN(CC(=O)Nc1ccccc1OC)C(=O)c1cc(-c2cccs2)nn1-c1ccccc1 | / | 13 | -15 | / | /
CCn1c(CSc2nncn2-c2ccc(OC)cc2)nc2cc(S(=O)(=O)N(C)C)ccc21 | -2% | -0.8 | 2 | 7 | -32
COCCNC(=O)COc1ccc(N(C)S(=O)(=O)c2ccc3ccccc3c2)cc1 | / | 2.7 | 4 | / | /
Cc1ccccc1S(=O)(=O)Cc1ccc(C(=O)NCc2cccnc2)o1 | -2% | 6.5 | -20 | 0 | -10
CC(C)Oc1cc(C(=O)NC2CCCCC2)c2ccccc2n1 | / | -0.4 | 5 | / | /
CCCNC(=O)C(Cc1ccccc1)NS(=O)(=O)c1ccc2c(c1)c(=O)n(C)c(=O)n2C (configuration not stated) | -5% | 0.7 | -3 | 0 | -34
CC(C)(C)OC(=O)NCCCC[C@H](NC(=O)c1nc[nH]c1C(=O)NC1CCN(C(=O)OC(C)(C)C)CC1)C(=O)OC(C)(C)C | 4% | 0.2 | 26 | / | /
CCC(=O)NC(=S)Nc1ccc(NC(=O)COc2ccc(Cl)c(C)c2)cc1 | ? | -1.6 | 97 | -5 | -22
O=c1c2oc3ccccc3c2ncn1Cc1ccc(F)cc1 | 2% | 0.8 | -2 | -5 | /
CCCCC1=CC2=CC(=O)C(C)(OC(=O)CC)C(=O)C2=CN1c1ccccc1 (configuration not stated) | 1% | -7.8 | -3 | / | /
O=C(c1csc2c1CCCCC2)N1CCN(c2ncccn2)CC1 | 8% | -0.1 | -6 | -5 | 5
CN1CCN2c3ncccc3Cc3ccccc3[C@@H]2C1 | / | 2.3 | 1 | / | /
Cc1ccc(NC(=O)CSc2nc3nc(C)cc(C)c3c(=O)[nH]2)cc1 | -4% | 2.3 | -4 | 0 | -43
CCN1CCN(c2nc3c(C)cccn3c(=O)c2/C=C(\C#N)C(=O)NCCOC)CC1 | / | -57 | -10 | / | /
COc1ccc(/C=N/NC(=O)c2cc(C)n(-c3ccccc3)c2C)cc1OC | -1% | 1.1 | 2 | -4 | /
CS(=O)(=O)Nc1nc2n(n1)C(c1ccccc1)C=C(c1ccc(Br)cc1)N2 (configuration not stated) | / | -220 | 97 | 2 | -37
NC(=S)Nc1cccc2cccnc12 | -4% | -0.6 | 93 | 13 | -25
CCc1ccc(-c2cc(C)no2)cc1S(=O)(=O)Nc1ccc(C)cn1 | / | 3.6 | 6 | / | /
CC(C)Cc1nc(SCC(=O)Nc2ccc(S(N)(=O)=O)cc2)n[nH]1 | -5% | / | -2 | 7 | -12

Ordered by count of non-hydrogen atoms (lowest first): some entries from above.
SMILES | Mtb H37Rv | RecA intein inh | Mtb bLac sens | Arbovirus anti | YopH inh | others
NC(=S)Nc1cccc2cccnc12 | -4% | -0.6 | 93 | 13 | -25
CN1CCN2c3ncccc3Cc3ccccc3[C@@H]2C1 | / | 2.3 | 1 | / | /
O=c1c2oc3ccccc3c2ncn1Cc1ccc(F)cc1 | 2% | 0.8 | -2 | -5 | /
CC(C)Oc1cc(C(=O)NC2CCCCC2)c2ccccc2n1 | / | -0.4 | 5 | / | /
O=C(c1csc2c1CCCCC2)N1CCN(c2ncccn2)CC1 | 8% | -0.1 | -6 | -5 | 5
CCc1ccc(-c2cc(C)no2)cc1S(=O)(=O)Nc1ccc(C)cn1 | / | 3.6 | 6 | / | /
Cc1ccccc1S(=O)(=O)Cc1ccc(C(=O)NCc2cccnc2)o1 | -2% | 6.5 | -20 | 0 | -10
CS(=O)(=O)Nc1nc2n(n1)C(c1ccccc1)C=C(c1ccc(Br)cc1)N2 (configuration not stated) | / | -220 | 97 | 2 | -37
COc1ccc(/C=N/NC(=O)c2cc(C)n(-c3ccccc3)c2C)cc1OC | -1% | 1.1 | 2 | -4 | /
COCCNC(=O)COc1ccc(N(C)S(=O)(=O)c2ccc3ccccc3c2)cc1 | / | 2.7 | 4 | / | /
CCN1CCN(c2nc3c(C)cccn3c(=O)c2/C=C(\C#N)C(=O)NCCOC)CC1 | / | -57 | -10 | / | /
CCCNC(=O)C(Cc1ccccc1)NS(=O)(=O)c1ccc2c(c1)c(=O)n(C)c(=O)n2C (configuration not stated) | -5% | 0.7 | -3 | 0 | -34
CCCN(CC(=O)Nc1ccccc1OC)C(=O)c1cc(-c2cccs2)nn1-c1ccccc1 | / | 13 | -15 | / | /
CC(C)(C)OC(=O)NCCCC[C@H](NC(=O)c1nc[nH]c1C(=O)NC1CCN(C(=O)OC(C)(C)C)CC1)C(=O)OC(C)(C)C | 4% | 0.2 | 26 | / | /

Back to the main list with the two entries that preceded the break.
SMILES | Mtb H37Rv | RecA intein inh | Mtb bLac sens | Arbovirus anti | YopH inh | others
CCc1ccc(-c2cc(C)no2)cc1S(=O)(=O)Nc1ccc(C)cn1 | / | 3.6 | 6 | / | /
CC(C)Cc1nc(SCC(=O)Nc2ccc(S(N)(=O)=O)cc2)n[nH]1 | -5% | / | -2 | 7 | -12
Cc1ccc(C2=NN3C(C(=O)c4ccccc4)Oc4ccccc4C3C2)cc1 (configuration not stated) | -19% | -1.4 | 2 | -30 | -16
CCCC(=O)NC1C2CC3CC(C2)CC1C3 (configuration not stated) | 9% | -0.4 | 1 | 8 | -18
COC(=O)c1ccccc1NC(=O)/C=C/C(=O)O | 5% | -0.2 | 1 | 0 | -18
O=C(Nc1ccccc1)C1=C(N2CCOCC2)/C(=C/c2cccnc2)CC1 | -15% | -4.5 | -2 | 0 | -63
Cc1cc(C(=O)CSc2nc3ccc(Cl)cc3[nH]2)c(C)n1C | -15% | 5.3 | ? | -5 | 10
O=c1[nH]c(N/N=C/c2ccccc2)nc2ccccc12 | 0% | -5.6 | 9 | -9 | -28
O=C(/C=C/c1cccs1)Nc1cccnc1 | -1% | 0.2 | -5 | -1 | -34
N#CC(CCN1CCOCC1)(c1ccccc1)c1ccccc1 | / | 4.5 | 7 | / | /
COC(=O)c1ccc(NC(c2ccc(Cl)cc2)P(=O)(OC)OC)cc1 (configuration not stated) | 11% | 1.2 | -1 | 2 | -29
Cc1ccc(Nc2nnc(SCC(=O)NC3CCS(=O)(=O)C3)s2)c(C)c1 (configuration not stated) | 1% | -0.6 | 0 | 12 | /
CCc1nc2ccccc2c(C(=O)Nc2cc(C)ccc2C)c1C | / | -1.7 | 97 | / | /
C[C@@H](C(=O)Nc1ccc2c(c1)OCCO2)n1c(=O)[nH]c2ccccc2c1=O | / | -1.1 | -9 | / | /
CC(C)N(Cc1nc(-c2ccc(Cl)cc2)no1)C(=O)CN(C)S(=O)(=O)c1ccc(Cl)cc1 | 6% | 0.8 | -2 | 3 | -9
CCN(CC)Cc1cc(Nc2ccnc3cc(Cl)ccc23)ccc1O | / | 19&14 | -1&-1 | / | /
Cc1ccnc(N2CCN(C(=O)CSc3nc4ccccc4nc3N3CCC(C)CC3)CC2)c1 | 25% | 4.4 | 5 | -3 | /
COCCNC(=O)C(c1ccc(Cl)cc1)N(C(=O)CCC(=O)Nc1ccccn1)C1CCCC1 (configuration not stated) | -10% | -0.5 | -1 | 1 | -33
O=[N+]([O-])c1cc(CN2CCOCC2)c2cccnc2c1O | -4% | / | / | -11 | /
CC(C)N1C(=O)c2ccc(C(=O)O)cc2C1=O | 3% | 0.1 | 1 | 9 | -34

Source: PubChem (several laboratories)

Only part of the results is shown (hit frequency here may not be typical).
